PABP FP inh: PABP poly(A) RNA binding inhibitors, primary screen, biochemical, fluorescence polarization, uHTS; Polyadenylate-binding protein 1 (Homo sapiens), P11940; inhibition, % at 35 µM; hit rate 1% among 290,000; AID 2014, 2009;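 active means 50% or more with normal probe brightness, or confirmed in later tests; inconclusive means above 50% with abnormal brightness, or retests that disagree; inactive means below 50% or failed in later tests; about a fifth of its hits are not listed in these tables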;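 further: calls also rest on retests at 20 µM and on dose response follow-up; controls were probe without protein and protein plus probe with vehicle; some compounds called inactive have numbers as strong as hits; many hits fall short of the cut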
CSC inhib: cancer stem cell viability inhibitors, primary screen, luminescence. hit rate 1.1% among 300,000. inhibition, % at 7.5 µM. cancer stem cell-like cells viability;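 active means mean at 75% or more and at least half the replicates too; inconclusive means mean and replicates disagree; tested in HMLE shEcad cells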;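 further: 0% = median of negative and 100% = median of positive control wells; the first replicate is given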
Rce1 inhib: yeast Rce1p protease inhibitors, primary screen, biochemical, fluorescence, cell-free homogeneous | CAAX prenyl protease 2 (Saccharomyces cerevisiae (strain ATCC 204508 / S288c)), Q03530 | yeast membranes, quenched prenylated peptide cleavage fluorescence | calls only | hit rate 0.27% among 290,000 | AID 2563, 2010;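 active means fall in fluorescence gain of 50% or more versus controls, with final raw signal at or below 3038400; inconclusive means same 50% fall but final raw signal above 3038400; inactive means fall in fluorescence gain under 50%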;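 further: plate controls were neutral control wells for no effect and wells lacking membranes for full effect; tested at 10 µM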
Target sequence (Q03530 whole entry, looked up): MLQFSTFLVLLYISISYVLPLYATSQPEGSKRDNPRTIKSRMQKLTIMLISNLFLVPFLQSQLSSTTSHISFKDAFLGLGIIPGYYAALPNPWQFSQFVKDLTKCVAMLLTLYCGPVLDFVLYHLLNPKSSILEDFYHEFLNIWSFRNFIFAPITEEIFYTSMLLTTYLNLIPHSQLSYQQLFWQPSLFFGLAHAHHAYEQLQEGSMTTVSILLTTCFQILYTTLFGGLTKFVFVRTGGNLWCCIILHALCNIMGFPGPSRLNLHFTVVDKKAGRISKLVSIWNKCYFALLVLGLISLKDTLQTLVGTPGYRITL
eIF4H FP inh: human eIF4H binding inhibitors, primary screen, translation initiation inhibitor project, biochemical, uHTS, fluorescence polarization; Eukaryotic translation initiation factor 4H (Homo sapiens), Q15056; eIF4H fluorescence polarization binding assay; inhibition, % at 35 µM; hit rate 0.94% among 290,000;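 active means 50% or more with normal probe brightness, or confirmed in later tests; inconclusive means above 50% with abnormal brightness, or retests that disagree; inactive means below 50% or failed in later tests; about a fifth of its hits are not listed in these tables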;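 further: calls also rest on retests at 20 µM and on dose response follow-up; 0% = protein and probe with vehicle and 100% = probe without protein; strong numbers were not always called active; many hits fall short of the cut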
MT1-MMP act inh: blockers of MT1-MMP proenzyme processing, primary screen, HT1080 RFP-PRO-GFP cells, GFP/RFP fluorescence; GFP/RFP ratio fluorescence, overnight; percent of plate control window, DMSO zero; GFP/RFP ratio change, % at 20 µM; hit rate 0.061% among 360,000; AID 651647, 2012;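 active means GFP/RFP ratio change of at least 30% with cell ATP level not reduced by more than half and red fluorescence within 50% of control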; further: strong numbers were not always called active
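Assay system: HT1080 cells carrying an RFP-PRO-GFP reporter | Dosing: Single dose of 20 µM compound, 1% DMSO final | Incubation: Cells overnight before dosing, compound overnight, 37 °C, 5% CO2 | Evaluation: GFP/RFP fluorescence ratio | Control set: DMSO and RFP-L50D-GFP cell wells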
UUG fidelity: modulators of yeast start codon fidelity, primary screen, whole organism, S. cerevisiae, single point, plate reader; S. cerevisiae UUG-firefly luciferase reporter, luminescence/redox ratio; activity score, % at 18.7 µM; hit rate 0.13% among 350,000;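 active means replicate mean at a twofold rise or more, about +100% in these data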;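 further: firefly luciferase made from a UUG start codon reports start codon fidelity; reporter light over untreated wells divided by growth signal over untreated wells; some hits fall short of that in this replicate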
HIV Env fusion: inhibitors of HIV-1 Env-driven cell-cell fusion, primary screen, HeLa-JRFL effector, CEM21 target cells, luciferase. inhibition, % at 12.3 µM. hit rate 1.1% among 360,000;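 active means mean replicate inhibition score of at least 50 and every replicate individually at or above 50; inconclusive means only one of the two criteria met; inactive means mean below 50 and not all replicates reaching 50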;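 further: 0% = plate neutral controls and 100% = maraviroc near 300 nM; one replicate is shown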
MT1-MMP act inh RFP: recorded beside MT1-MMP act inh, whose call it bears; RFP signal change, %; measured here: RFP expression control read;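 0 = vehicle wells; hits needed this value within 50% of zero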
Active calls of the source: *; i = inactive; ? = inconclusive; . = not tested or not shown.

SMILES	PABP FP inh	CSC inhib	Rce1 inhib	eIF4H FP inh	MT1-MMP act inh	MT1-MMP act inh RFP	UUG fidelity	HIV Env fusion
CC(=O)[C@@H]1[C@@H](C(=O)c2ccccc2)[C@]2(C(=O)Nc3ccccc32)[C@H]2C=Cc3cc(F)ccc3N12	9.3	41.2	i	?	-2.6	9.8	.	15.0
COc1ccc(NC(=O)c2cc3cc(OC)ccc3oc2=N)cc1	-7.8	1.8	.	-11.7	1.3	0.4	-22.0	-34.7
CCOc1ccc(OCC(=O)N(CCC2=CCCCC2)c2c(N)n(Cc3ccccc3)c(=O)[nH]c2=O)cc1	.	75.8*	i	.	-0.3	-6.2	-9.1	9.4
CC[n+]1c(/C=C2/C=C(C)CC(C)(C)C2)sc2ccc(OC)cc21	5.1	30.2	i	8.4	-3.4	4.9	29.9	.
Cc1cc2oc(C(=O)Nc3ccc(S(N)(=O)=O)cc3)c(C)c2cc1Cl	-1.4	13.1	i	-7.7	5.2	3.0	.	5.8
Cc1ccc2oc(-c3cccc(N)c3)nc2c1	-4.5	-5.7	.	-9.3	1.2	2.2	-7.2	-127.7
CCOC(=O)c1nnn(-c2nonc2N)c1-c1ccc(F)cc1	-14.2	.	i	4.0	6.0	2.5	7.7	2.1
COc1cc(C(=O)NC(=S)Nc2ccc(Cl)c(C(=O)O)c2)cc(OC)c1OC	13.4	2.8	i	7.7	11.5	3.6	4.0	29.3
CCCSc1nsc(NC(=O)C(c2ccccc2)c2ccccc2)n1	8.1	121.6*	i	-11.4	-29.1	-38.4	-2.8	.
COc1ccccc1OCc1nnc(SCC(=O)Nc2ccc(C)cc2)n1C	-7.0	4.9	i	-9.0	2.9	1.8	-4.0	.
CC(C)C(=O)Nc1ccc2c3c(cccc13)CC2	2.1	-4.5	i	1.9	-4.5	0.2	-34.4	.
CCOC(=O)CSC1=NC(=O)/C(=C/c2ccc(OC)cc2)S1	4.9	72.5	i	0.2	-10.8	-1.1	.	.
c1ccc(-c2nc3ccccn3c2NCc2ccc3c(c2)OCO3)cc1	4.9	-5.1	i	2.1	-1.8	-0.9	-11.8	-68.5
CCn1c2ccccc2c2cc(NC(=O)CSc3nnc(-c4ccccc4OC)n3N)ccc21	6.0	-7.2	i	-2.3	-0.7	1.0	.	133.4*
COc1ccc(CN2CCC(C(=O)Nc3ccc(Oc4ccccc4)nc3)CC2)cc1F	-12.4	9.3	i	-5.2	-6.3	-22.5	-3.3	49.3
Cc1cccc(/C=C/c2onc(C)c2S(=O)(=O)N2CCC(C(=O)N3CCC(C)CC3)CC2)c1	.	-18.2	i	.	-12.2	-13.3	-18.6	2.0
CCc1ccc(-c2nc(CN3CCC(C(=O)NCc4ccco4)CC3)c(C)o2)cc1	5.8	-12.1	i	-8.0	.	.	.	-49.2
CC1(C)C(C#N)=C(N)Oc2c1c(=O)oc1ccccc21	9.0	-2.6	i	4.8	-1.3	0.1	.	19.1
COc1ccccc1COc1ccc2c(C)c(CC(=O)O)c(=O)oc2c1C	7.4	-7.1	i	6.9	-1.2	-0.1	-9.3	-12.6
CCc1c(C)nc2cc(-c3cc(OC)cc(OC)c3)nn2c1N1CCN(CCN2CCOCC2)CC1	-1.9	2.2	i	-2.3	4.7	-3.6	-4.9	.
COc1ccc(Cc2c(Cl)ncnc2Cl)cc1	0.7	11.1	i	-6.8	-5.4	-5.1	.	-10.4
O=C(Nc1cccc(S(=O)(=O)C(F)F)c1)c1ccc(Cl)c(S(=O)(=O)N2CCOCC2)c1	-2.3	-11.3	i	-10.0	-2.7	-14.5	8.5	.
Cc1ccc(C2=NN(C(=O)CCl)C(c3ccco3)C2)o1 (stereo not drawn)	5.1	.	i	-3.5	-0.2	0.4	.	4.9
CCCCN(Cc1cc2cc(OC)ccc2[nH]c1=O)C(=O)COc1ccccc1	.	-4.4	i	.	4.4	5.9	-7.2	.
CC(=O)c1ccc(NC(=O)CSc2nnc(NC(=O)c3ccco3)s2)cc1	5.3	-13.1	i	-9.9	-1.2	3.0	0.6	.
CCOC(=O)c1nnc(-c2ccccc2)nc1NCc1ccccc1	-6.4	-8.4	i	-0.1	2.2	-1.8	-15.1	-65.1
CC(CN1CCCC1)C(=O)NN (stereo not drawn)	7.1	-8.2	i	5.1	-0.9	5.4	-28.2	5.5
Cc1ccc(CC(=O)Nc2ccccc2N2CCOCC2)cc1C	6.9	1.3	.	-10.6	0.5	0.4	27.2	.
Cc1ccc(NC(=O)NCCN2CCCCC2)cc1Cl	2.1	-12.6	i	-6.9	1.2	2.0	-13.0	10.8
Cc1cc(C)n(CCC(=O)Nc2ccc(-c3ccno3)cc2)n1	1.9	1.0	i	-19.5	-2.1	0.0	-25.5	-9.5
O=C1NC(=S)S/C1=C/c1ccc(OC(=O)c2ccco2)cc1	11.1	.	i	7.0	-12.2	8.2	-7.4	-7.4
COc1ccc(-c2oc(NC(=O)CSc3ncn[nH]3)c(C#N)c2-c2ccc(OC)cc2)cc1	-9.2	56.0	i	7.7	2.0	-1.1	.	.
COc1cc(CNC(=O)c2ccc3oc(C(C)C)nc3c2)cc(OC)c1	-5.6	8.4	i	-7.5	5.1	-5.2	-8.6	12.2
COc1ccc(NC(=O)COc2ccc(C(=O)c3ccc(F)cc3)cc2)cc1S(N)(=O)=O	-7.2	-12.3	i	-13.0	0.0	-13.2	-2.2	32.6
Cc1cccc(C(=O)OCC(=O)N2CC(C)CC(C)C2)c1C (stereo not drawn)	.	-15.9	.	.	3.2	1.9	-2.8	.
CCN(CC)CCn1c2c(c(SCC(=O)Nc3nc4ccc(C)cc4s3)nc1=O)CCC2	.	-20.3	i	.	2.1	-0.6	-16.0	-5.2
COC(=O)c1cc(OC)c(OC)cc1NC(=O)CSCc1c(C)noc1C	.	-1.9	.	.	2.3	-3.9	-10.8	-42.2
COc1ccc([N+](=O)[O-])cc1NC(=O)COC(=O)Cn1cnc2ccccc2c1=O	.	6.8	.	.	2.2	6.0	-5.6	.
COCCN(C(=O)c1csnn1)C(C(=O)NC1CCCCC1)c1ccccc1 (stereo not drawn)	-3.5	-11.7	i	-5.2	0.7	0.5	-0.4	12.8
COc1cccc(/C=N/NC(=O)CCc2c(C)n[nH]c2C)c1	8.9	-16.8	i	0.1	-6.5	3.8	-18.8	.
CCCCN1CC(COCc2ccccc2)Oc2cccc(Oc3ccc(OC)cc3)c2S1(=O)=O (stereo not drawn)	.	.	.	.	-6.0	-30.3	-22.2	10.9
O=C(c1ccccc1)c1cnc2ccc(Cl)cc2c1N1CCOCC1	18.5	-4.6	i	-20.2	3.8	1.7	-5.2	3.7
Cc1ccc(C(=O)Nc2ccccc2)cc1S(=O)(=O)Nc1ccc(Cl)cn1	12.8	.	i	-6.9	1.8	-0.2	.	3.5
Cc1ccc(NC(=O)c2ccc([N+](=O)[O-])cc2)cc1S(=O)(=O)N(C)C	-5.6	1.5	i	6.6	1.3	-8.0	-8.7	-10.4
COc1ccc(CC(N)c2csc(NC(=O)NCc3ccccc3)n2)cc1 (stereo not drawn)	.	.	.	.	-0.6	-3.4	-5.5	17.4
Cc1ccc(-n2ncc(C(=O)N3CCN(C(=O)c4ccco4)CC3)c2-n2cccc2)cc1	7.0	-6.5	i	-12.5	0.5	-4.7	-19.6	-21.9
CCN1CCN(C(=O)C2CCN(S(=O)(=O)c3cc(Cl)ccc3Cl)CC2)CC1	2.3	-6.0	.	-9.4	1.6	3.7	-5.4	-14.4
COC(C)(C)[C@@H](O)COc1c2ccoc2cc2oc(=O)ccc12	.	-11.0	.	.	-1.6	-1.0	-11.0	-8.8
Cc1ccc(NC(=O)c2cc(S(=O)(=O)NCCC3=CCCCC3)ccc2F)cc1	0.9	.	i	-8.3	-9.5	-32.7	-1.8	.
Cc1ccccc1-c1nc(CS(=O)CC(=O)NC(C)CCc2ccccc2)c(C)o1 (stereo not drawn)	-2.6	-10.2	i	-4.0	-3.2	-1.7	18.3	.
O=C(NCc1ccccn1)c1cccc(S(=O)(=O)N2CCc3ccccc32)c1	.	-8.9	.	.	-2.1	-4.6	-10.3	6.2
Cc1nc(NS(=O)(=O)c2ccccc2)sc1NC(=O)OC(C)C	-3.3	-2.9	i	-3.0	0.7	2.5	-12.9	.
COc1ccc2c(c1)CCC1=C2NC(=S)NC1c1ccc(N(C)C)cc1 (stereo not drawn)	-14.0	.	i	4.4	-3.2	-4.1	-29.3	18.0
CCc1nnc(NC(=O)CCN2C(=O)/C(=C/c3cc(OC)c(OC)c(OC)c3)SC2=S)s1	21.4	20.0	i	-0.6	3.0	6.7	-14.2	2.1
Cc1nn(C)c(C)c1S(=O)(=O)N(CC(=O)NC1CCCCCC1)c1ccc(C(C)C)cc1	-3.8	2.9	i	-3.3	-2.5	1.7	-9.7	-7.2
O=C(C1=C(O)C(=O)N(c2nccs2)C1c1ccccc1)c1cc2ccccc2o1 (stereo not drawn)	?	-9.6	i	?	-66.5	26.3	-14.4	-6.7
COc1cccc(Cn2cccc(NC(=O)NCc3ccccc3)c2=O)c1	4.2	-2.1	i	4.8	-2.7	-15.8	-7.0	-5.8
CCn1ncc(S(=O)(=O)Nc2cc(Cl)ccc2C)c1C	2.9	-10.1	i	-4.6	3.7	0.8	-10.6	.
Cc1cnc(C(=O)OCC(=O)Nc2ccc(OCc3ccccc3)cc2)cn1	.	-2.8	.	.	2.7	7.1	-15.0	-14.4
COc1ccc(NC(=S)Nc2ccccc2)cn1	6.9	.	i	?	-4.2	-1.0	.	-0.1
Next structures:
SMILES	PABP FP inh	CSC inhib	Rce1 inhib	eIF4H FP inh	MT1-MMP act inh	MT1-MMP act inh RFP	UUG fidelity	HIV Env fusion
CCc1cccc(NC(=O)C2CCCN(S(=O)(=O)c3cccs3)C2)c1 (stereo not drawn)	2.8	-5.8	i	-14.0	-1.7	-3.0	-11.1	7.8
c1ccc(Cc2nn3c(Cn4nnc5ccccc54)nnc3s2)cc1	0.7	2.2	i	6.0	3.7	0.6	-6.7	-85.8
COc1cc(CN2CCN(CCCc3ccccc3)C(CCO)C2)cc(OC)c1O (stereo not drawn)	3.5	-7.1	i	13.0	0.1	6.3	-17.3	1.3
O=C1NC(Cc2ccccc2)c2nc3ccccc3c(=O)n2-c2ncccc21 (stereo not drawn)	.	.	.	.	-1.6	-0.8	-1.4	?
Cc1ccnc(N2CCC(C(=O)Nc3cccc(C(F)(F)F)c3)CC2)n1	0.9	-1.8	i	-1.2	0.0	-4.2	-17.1	28.0
O=C(OCC(=O)N1CCN(C(=O)c2ccco2)CC1)c1cc(-c2ccccc2)nc2ccccc12	-3.7	-9.3	i	-9.1	-3.6	-5.0	-14.7	.
CS(=O)(=O)c1ccc(C(=O)NNC(=O)c2cccs2)cc1	.	-0.2	.	.	-1.6	0.5	-16.3	.
CC/C(=N\NS(C)(=O)=O)c1ccccc1	5.5	9.6	i	5.7	.	.	.	-30.3
Cc1cc(NC(=O)CSc2nc(C)c(C)c(=O)[nH]2)no1	.	-6.0	i	.	-8.3	-1.8	-11.8	3.5

This is a subset, so the mix of outcomes need not match the whole.
